Source: PubChem BioAssay
VDR inh: vitamin D3 receptor (human) inhibition; P11473; VDR-SRC2-3 peptide fluorescence polarization, 2 h; Potency, µM, for the others: max response, negative = inhibition, hits mostly inhibitors; actives 0.93% (n = 400,000); active means well fitted inhibition curve with a large enough effect; inconclusive means small, poorly fitted or top-dose-only effect, or another doubt; inactive means no such curve, though single readings can be large or run the other way; further: series mostly up to about 120 µM
Target sequence (P11473 whole entry, looked up): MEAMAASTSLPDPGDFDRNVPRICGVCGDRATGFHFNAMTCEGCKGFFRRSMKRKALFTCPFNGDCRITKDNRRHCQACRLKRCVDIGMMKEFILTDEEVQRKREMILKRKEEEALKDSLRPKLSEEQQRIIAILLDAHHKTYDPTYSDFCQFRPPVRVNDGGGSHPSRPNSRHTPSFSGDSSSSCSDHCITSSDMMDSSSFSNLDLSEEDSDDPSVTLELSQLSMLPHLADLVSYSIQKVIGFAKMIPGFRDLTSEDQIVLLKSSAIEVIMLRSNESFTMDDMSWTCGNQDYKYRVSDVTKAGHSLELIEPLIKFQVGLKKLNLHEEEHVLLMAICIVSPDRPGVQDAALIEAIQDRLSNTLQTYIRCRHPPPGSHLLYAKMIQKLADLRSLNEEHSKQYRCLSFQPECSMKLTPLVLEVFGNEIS
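FP read-out; VDR + SRC2-3 coactivator peptide; 23 nl compound by pintool; 2 h RT incubation; reagents held at 4 deg C, protected from light.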
* marks the source's active call; other numbers are inactive results; ? = inconclusive; & = joins results of further samples; [ ] = dose if it differs, or a comment. On the % scale 0 is the no-effect control and ±100 the full control effect; potency means the concentration at half of the fitted maximal effect. A portion of the library; rates above refer to the full screens.

nr	canonical_smiles	VDR inh
1	Cc1cccc(-c2nc3c(c(SCc4ccccc4Cl)n2)Cc2c(CO)cnc(C)c2O3)c1	7%
2	O=c1o[nH]c(-c2ccccc2)c1N=Nc1c(F)cccc1Cl	-7%
3	O=C(Nc1cccc(Cl)c1)c1nc[nH]c1C(=O)NCCN(CCNC(=O)c1[nH]cnc1C(=O)Nc1cccc(Cl)c1)CCNC(=O)c1[nH]cnc1C(=O)Nc1cccc(Cl)c1	4%
4	Cc1ccc(N2CCN(C(=O)c3noc4c3COc3ccc(C)cc3-4)CC2)c(C)c1	-10%
5	O=C(c1ccco1)N1CCCN(Cc2nc(-c3ccc4c(c3)OCO4)no2)CC1	6%
6	CCN(CC)CCCNC(=S)N1CCC(c2nc3ccccc3[nH]2)CC1	-20%
7	COc1ccc(S(=O)(=O)Nc2cccc(-c3ccc4nncn4n3)c2)c(OC)c1	?
8	CCN1C(=O)C(CC(=O)Nc2ccc(OC)cc2)N(CCc2ccc(F)cc2)C1=S (configuration not stated)	-22%
9	CC(=O)c1cccc(NC(=O)C2C3C=CC(C3)C2C(=O)O)c1 (configuration not stated)	-17%
10	Cc1ccc(C(=O)c2cc3ccccc3o2)cc1	-13%
11	CN(C)S(=O)(=O)c1ccc(Cl)c(C(=O)OCC(=O)c2ccco2)c1	2%
12	COc1ccc(-c2nn3c(-c4ccc(C)cc4)nnc3c3ccccc23)cc1	3%
13	CCOCc1cnc(C)nc1NCC(=O)c1c(C)[nH]c2ccc(OC)cc12	10%
14	COc1ccc(S(=O)(=O)N2CCCCC2)cc1NC(=O)c1ccc(Cl)nc1	0%
15	CC(C)(C)C(=O)N1CCN(c2ccc([N+](=O)[O-])c(NCC3CCCO3)c2)CC1 (configuration not stated)	2%
16	CCOC(=O)CC(=O)CSc1ncnc2c1cnn2-c1ccccc1	6%
17	CC(=O)c1cccc(NC(=S)NNC(=O)c2ccco2)c1	-5%
18	O=C(NCc1ccncc1)C(=O)NCC(c1ccco1)N1CCN(c2ccc(F)cc2)CC1 (configuration not stated)	5%
19	COc1cc(/C=N/NC(=O)c2ccncc2)ccc1OC(=O)c1ccco1	-6%
20	CC1CN(Cc2cc(=O)[nH]c(C(C)C)n2)CC(C)O1 (configuration not stated)	3%
21	CC(=O)N1CCN(c2ccc(Oc3ncnc4sccc34)cc2)CC1	-1%
22	CN1CCN(c2nc3ccccn3c(=O)c2/C=C(\C#N)S(=O)(=O)c2ccc(Cl)cc2)CC1	-18%
23	Cc1ccc(C(=O)NCC(=O)NCC(=O)OCC(=O)c2ccc(Br)cc2)cc1	-12%
24	O=C(CSc1n[nH]c(-c2ccccc2Cl)n1)NCCc1ccccc1	9%
25	CCn1cc(/C=C(\NC(=O)c2ccccc2F)C(=O)NCCCn2ccnc2)c2ccccc21	13%
26	Cc1ccc(OCCSc2nc3ccc(NC(=O)COc4ccc(F)cc4)cc3s2)cc1	6%
27	CCC1CCCCN1CCCNC(=O)CSc1nc2nc(C)c(Cc3ccc(C)cc3)c(C)n2n1 (configuration not stated)	-2%
28	CC(=O)c1ccc(S(=O)(=O)Nc2c(C)nn(C)c2C)cc1	-9%
29	Cc1coc2cc3oc(=O)c(CCC(=O)NCCCN4CCOCC4)c(C)c3cc12	-27%
30	Cc1ccc(OCCCCNC2CCCC(C)C2C)c(C)c1 (configuration not stated)	34%[activator]

Five compounds drawn at random from the list so far, as already listed:
nr	canonical_smiles	VDR inh
11	CN(C)S(=O)(=O)c1ccc(Cl)c(C(=O)OCC(=O)c2ccco2)c1	2%
12	COc1ccc(-c2nn3c(-c4ccc(C)cc4)nnc3c3ccccc23)cc1	3%
6	CCN(CC)CCCNC(=S)N1CCC(c2nc3ccccc3[nH]2)CC1	-20%
15	CC(C)(C)C(=O)N1CCN(c2ccc([N+](=O)[O-])c(NCC3CCCO3)c2)CC1 (configuration not stated)	2%
9	CC(=O)c1cccc(NC(=O)C2C3C=CC(C3)C2C(=O)O)c1 (configuration not stated)	-17%

Values by screen from the list:
Nos. 21–29 in VDR inh, in turn: -1%, -18%, -12%, 9%, 13%, 6%, -2%, -9%, -27%

Four structures already listed, sorted by number of heavy atoms, low to high:
nr	canonical_smiles	VDR inh
28	CC(=O)c1ccc(S(=O)(=O)Nc2c(C)nn(C)c2C)cc1	-9%
9	CC(=O)c1cccc(NC(=O)C2C3C=CC(C3)C2C(=O)O)c1 (configuration not stated)	-17%
6	CCN(CC)CCCNC(=S)N1CCC(c2nc3ccccc3[nH]2)CC1	-20%
4	Cc1ccc(N2CCN(C(=O)c3noc4c3COc3ccc(C)cc3-4)CC2)c(C)c1	-10%

Continued:
nr	canonical_smiles	VDR inh
31	O=C(/C=C/c1ccccc1[N+](=O)[O-])NCCc1ccc(F)cc1	9%
32	CSc1ccccc1C(=O)N1CCC(n2nccc2NC(=O)C(C)(C)C)CC1	-10%
33	COc1cc2cc(NC(C)=O)cc(NCc3ccccc3)c2cc1OC	7%
34	CC(C)c1cc(C(=O)N/N=C/c2cccnc2)n[nH]1	-2%
35	CCOCCCNC(=O)CN1C(=O)c2cccc3cccc1c23	-7%
36	O=C(NC(=S)Nc1cccc2c(O)cccc12)c1cccc(Br)c1	-9%
37	Cc1ccc(-c2cc(C(F)(F)F)n3nc(C(=O)N4CCN5CCCC5C4)cc3n2)cc1 (configuration not stated)	3%
38	O=C(O)CC(CC(=O)Nc1ccc(F)c(Cl)c1)c1ccc(Cl)cc1Cl (configuration not stated)	-20%
39	Cc1ccc(C)c(OCCCn2c(-c3ccc(Cl)cc3)nc3ccccc3c2=O)c1	-24%
40	CCN(CC)CC(=O)Nc1c(C#N)cnn1-c1ccccc1	-8%
41	O=C(c1cccs1)N(Cc1cccc(F)c1)C1CCS(=O)(=O)C1 (configuration not stated)	?
42	Cc1nnc(NC(=O)CSc2nnc(NC(=O)C(C)(C)C)s2)s1	9%
43	COc1ccc(-c2cn3c(n2)sc2cc(C(=O)Nc4cc(Cl)ccc4C)ccc23)cc1	6%
44	O=C1CSC(=Nc2ccc(Cl)cc2)N1Cc1cccnc1	10%
45	O=C(NC(=S)N1CCN(c2ccc([N+](=O)[O-])cc2)CC1)c1ccco1	-7%
46	COc1cc(C(=O)NCCS(=O)(=O)N2CCN(c3ccccc3)CC2)cc(OC)c1OC	22%
47	Fc1ccccc1Cc1nnc2n1N=C(c1ccc(Cl)cc1)CS2	-2%
48	O=C(NCCCN1CCOCC1)C1CCCN(S(=O)(=O)N2CCCCC2)C1 (configuration not stated)	-8%
49	Cc1ccc(NC(=O)CCC(=O)N/N=C/c2coc3ccc(F)cc3c2=O)cc1	-19%
50	O=C(Nc1cccc(-c2cn3ccccc3n2)c1)c1ccccc1	12%
51	Cc1ccc([N+](=O)[O-])cc1NC(=O)CN(C1CCCCC1)S(=O)(=O)c1ccc(Cl)cc1	14%
52	COC(=O)c1c(NC(=S)Nc2cc(OC)c(Cl)cc2OC)sc2c1CCCCC2	-9%
53	O=C(CSc1nnc(-c2ccncc2)n1C1CCCCC1)Nc1ccccc1	-13%
54	CCc1noc(C)c1C(=O)OCC(=O)NC(=O)c1ccccc1	-20%
55	COc1ccc(/C=C/C(=O)Nc2ccc(Cl)c(Cl)c2)cc1	-5%
56	C=C(C)CNC(=S)NN=C1c2ccccc2-c2ccccc21	0%
57	CC(=O)c1cc(F)c(N2CCN(C(=O)c3ccco3)CC2)cc1C	14%
58	Fc1ccc(CNc2nc(-c3ccc(Cl)cc3)cc(C(F)(F)F)n2)cc1	-10%
59	C=CCC(O)(C#Cc1ccccc1)c1ccccc1 (configuration not stated)	3%
60	CCc1ccc(C(=O)COC(=O)c2ccco2)cc1	-5%
61	COc1ccc2c(c1)c1c(c(=O)n(-c3ccccc3C)c(=O)n1CC(N)=O)n2C	13%
62	Nc1nc(SCc2ccc(Cl)cc2)[nH]c(=O)c1-c1ccccc1	0%
63	O=C1C(Nc2cccc(O)c2)=C(N2CCCCC2)C(=O)c2ccccc21	?
64	O=C(NCCN1C(=O)S/C(=C\c2ccccc2)C1=O)c1cc(S(=O)(=O)N2CCOCC2)c(Cl)cc1Cl	-7%
65	O=C(N/N=C/c1ccsc1)c1ccc2c(c1)OCO2	-9%
66	Cc1ccc(NC(=O)C2CCN(S(=O)(=O)c3cccc4nonc34)CC2)nc1	15%
67	Cc1ccc(NC(=O)Nc2nnc(-c3ccncc3)s2)cc1C	-1%
68	O=C(c1ccco1)[C@@H]1[C@@H]2C(=O)N(c3ccccc3)C(=O)[C@@H]2C2c3ccccc3C=CN21 (some centres not stated)	-15%
69	COC(=O)c1ccc(CSc2nnc(Nc3ccc(C)cc3)s2)o1	18%
70	O=C1C2ON(c3ccccc3)C(c3ccncc3)C2C(=O)N1c1ccc(N2CCOCC2)cc1 (configuration not stated)	-5%
71	Cc1ccc(C(c2ccc(C)c(C)c2)C(O)C2OC(=O)C(O)C2O)cc1C (configuration not stated)	-7%
72	CSc1nsc(/C=C/Nc2ccc(O)cc2C)c1C#N	-14%
73	COc1ccc(N(CC(=O)Nc2cccc(C)c2)S(=O)(=O)c2c(C)n[nH]c2C)cc1	?
74	COc1ccc(CC(=O)OCC(=O)N(CC(C)C)c2c(N)n(Cc3ccccc3)c(=O)[nH]c2=O)cc1	0%
75	COCCN1C=C2C(=O)C(C)(OC(=O)C3CCCC3)C(=O)C(c3ccccc3)=C2C=C1CCCC(=O)OC (configuration not stated)	1%
76	CCCCN(CC)Cc1ccc(CNC(=O)Nc2ccccc2)o1	-1%
77	COC(=O)c1ccc(CSc2nnc(CNC(=O)c3ccccc3F)o2)o1	-3%
78	CCc1nnc(SC(C)C(=O)Nc2nccs2)n1C (configuration not stated)	-4%
79	Cc1cccc(NC(=O)CNC(=O)COC(=O)CCS(=O)(=O)c2ccccc2)c1C	2%
80	Cc1nc2ccc(NC(=O)c3cccc(S(=O)(=O)N4CCOCC4)c3)cc2s1	-9%
81	CCN(CC(=O)NCc1cccs1)c1nnnn1-c1ccccc1	-8%
82	O=C(Nc1ccc(OCC(=O)N2CCC(Cc3ccccc3)CC2)cc1)c1ccco1	11%
83	CC1=NN(C(N)=S)C(=O)C1N=Nc1c(Br)cc(Br)cc1Br (configuration not stated)	?
84	COc1ccc(S(=O)(=O)NCC2CCCN(C(=O)c3cccnc3C)C2)cc1 (configuration not stated)	-19%
85	CCOC(=O)C(NCc1ccccc1OC)(NC(C)=O)C(F)(F)F (configuration not stated)	4%
86	CCOC(=O)[C@@H]1[C@H]2COc3cc(OC)ccc3[C@H]2N2C(=O)N(c3ccc(C)cc3)C(=O)[C@]12C	15%
87	Cn1c(C(=O)NCCCN2CCOCC2)cc2c(=O)n(C)c3ccccc3c21	-4%
88	CCOc1cccc(CN2CCCC(CNC(=O)c3cccc(OC)c3OC)C2)c1 (configuration not stated)	1%
89	Cc1cc(C)n2ncc(C(=O)Nc3ccc4c(c3)OCO4)c2n1	-24%
90	CN(C(=O)COC(=O)c1ccc(Cl)c(N)c1)c1ccccc1	14%

Another view of 2 compounds above:
item | VDR inh | canonical_smiles
19 | -6% | COc1cc(/C=N/NC(=O)c2ccncc2)ccc1OC(=O)c1ccco1
20 | 3% | CC1CN(Cc2cc(=O)[nH]c(C(C)C)n2)CC(C)O1 (configuration not stated)

(continued)
nr	canonical_smiles	VDR inh
91	CC(Oc1ccc(Cl)cc1)c1ccnc(N)n1 (configuration not stated)	5%
92	O=C(N/N=C/c1ccccc1)c1ccc(CN2C(=O)c3cccc4cccc2c34)cc1	3%
93	COc1cc(/C=C/C(=O)c2cccs2)cc(OC)c1OC	13µM*
94	CC(C)CCn1cnc2c(cnn2-c2ccc(F)cc2)c1=O	-13%
95	COc1ccc(NC(=O)N(C)C[C@H]2Oc3ccc(NC(=O)Cc4ccccc4)cc3C(=O)N([C@H](C)CO)C[C@@H]2C)cc1	-20%
96	CC(=O)c1sc(N2CCOCC2)nc1-c1ccccc1	2%
97	COc1ccc(N=C2SC(CC(=O)Nc3ccccc3OC)C(=O)N2Cc2ccco2)cc1 (configuration not stated)	-17%
98	CN(C)C(=O)CN(c1ccc(F)c(Cl)c1)S(C)(=O)=O	0%
99	O=C(c1ccc(S(=O)(=O)N2CCCCC2)cc1)N1CCN(c2ccccc2)CC1	17%
100	COc1ccc(/C=N/Nc2nc3ccccc3c(=O)[nH]2)cc1	-7%
101	Fc1ccc(-c2n[nH]c(=S)n2CC2CCCO2)cc1 (configuration not stated)	1%
102	O=C(c1ccccc1)c1ccc2nc(-c3ccc(NC(=O)c4ccccc4F)cc3)[nH]c2c1	-3%
103	CC(=O)N1CCN(CCN=CC2=C(O)CC(C)(C)CC2=O)CC1	-2%
104	C=CCOCCN(CC)CC	-4%
105	COc1ccc(CNC(=O)CCNS(=O)(=O)c2ccc(NC(C)=O)cc2)cc1OC	5%
106	CCOC(=O)c1c(NC(=O)C2C3C=CC(CC3)C2C(=O)O)sc(C)c1CC (configuration not stated)	3%
107	COc1ccc(S(=O)(=O)NC2CC2)cc1Cl	-13%
108	CCOc1ccc(-c2nc(CSCC(=O)NC3CCCc4ccccc43)c(C)o2)cc1 (configuration not stated)	-4%
109	O=C(COc1cc(Cl)c(Cl)cc1Cl)Nc1cccc(O)c1	-5%
110	O=[N+]([O-])c1ccc(C[n+]2ccc(Cc3ccccc3)cc2)cc1	13%
111	O=C(N/N=C/c1ccccn1)c1cc(-c2ccc(Cl)s2)[nH]n1	11%
112	C/C(=C\c1ccccc1)CN1CCC(C(=O)N2CCCC(C)C2)CC1 (configuration not stated)	-12%
113	COc1ccc(-c2n[nH]c(=S)n2-c2cc(OC)ccc2OC)cc1	3%
114	COc1cccc(NC(=O)CSc2nc(=O)[nH]c3c2CCCC3)c1	-7%
115	CC(C)C(=O)Nc1ccc(C(=O)NNC(=S)NC(=O)c2ccccc2[N+](=O)[O-])cc1	0%
116	CC(=O)N1CCOc2cc(S(=O)(=O)NCc3ccc(F)cc3)c(C)cc21	-15%&8%
117	CCOC(=O)CC1NCCc2c1[nH]c1ccc(OC)cc21 (configuration not stated)	11%
